PINK1 modulator – A Quantitative High throughput Screen to Identify Chemical Modulators of PINK1 Expression | Potency, µM (titrated, usually from 76.6 µM), for the others: top-dose activation (PINK1 increase), actives largely listed as activators | 410,000 compounds, 0.2% hits | AID 624263, 2012 | PINK1 immunofluorescence, high-content cytometry, 24 h; active = well fitted activation curve with a large enough effect; inconclusive = small, poorly fitted or top-dose-only effect; inactive = flat fitted curve, though single readings scatter; cell line not stated here;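 note: potency is the fitted concentration of half-maximal effect; % of control where 0% means no effect; nearly all actives have a fitted effect of over 65% in size; a mitochondrial uncoupler was the plate control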
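Decision-based qHTS: stable cells, 24 h exposure to five compound concentrations, CCCP as control. Fixed cells stained for PINK1 plus nuclear, mitochondrial and cell markers, cytometer read.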
Sfp inh – qHTS Assay for Inhibitors of Bacillus subtilis Sfp phosphopantetheinyl transferase (PPTase); 4'-phosphopantetheinyl transferase ffp (Bacillus subtilis), Q9F4F7; Biochemical Sfp PPTase activity, qHTS; Potency, µM, without a hit: max response, negative = inhibition, most hits filed as inhibitors; 310,000 compounds, 3.5% hits; active = well fitted inhibition curve with a large enough effect; inconclusive = small, poorly fitted or top-dose-only effect, or another doubt; inactive = no such curve, though single readings can be large or run the other way;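 note: the enzyme is Sfp with the accession as filed and its product quenches rhodamine fluorescence; potency is the fitted concentration of half-maximal effect; 0% = enzyme reaction without inhibitor and -100% = no enzyme wells; top concentration of the series not given in the record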
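After 15 min at room temperature with compound, 15 nM Sfp received 5 uM rhodamine-CoA plus 12.5 uM BHQ-2-ybbR (50 mM Hepes pH 7.6, 10 mM MgCl2). Rate came from the fluorescence difference over 30 min, ex 525/em 598 nm.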
D2 PAM – Beta-Arrestin HTS for Positive Allosteric Modulators of the Human D2 Dopamine Receptor: Potentiators. potentiation, % (concentration not given with the values). DiscoveRx D2 beta-arrestin cells, luminescence, 90 min; 100% = 57 uM dopamine signal. 360,000 compounds, 0.23% hits; active = potentiation of 50% or more; inconclusive = 30% to 50%; inactive = 30% or less;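 note: tested on top of an EC20 dose of dopamine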
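PathHunter beta-arrestin assay in DiscoveRx D2 cells. Compounds were added with an EC20 of dopamine (50 nM final) for 90 min at 37 deg C. Luminescence was read 1 h after detection reagent, with 57 uM dopamine as the EC100 control.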
CtBP-E1A blk – qHTS Assay for Inhibitors of the CtBP/E1A Interaction | activity change, % (no concentration beside the values) | 340,000 compounds, 0.49% hits | AID 651724, 2012 | AlphaScreen GST-E1A/His-CtBP binding, 1536-well; stronger effect = lower value; control for the full effect not named in the record; in the data active means activity change below about -65%; inconclusive means about -30% to -65%; inactive means above about -30%; note: % is set by controls: 0 for no effect and ±100 for the full control effect
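Protein mix (5X: 125 nM each GST-E1A, His-CtBP) was incubated with pinned compound 2 h at 37 deg C in dark, in 50 mM Tris pH 8.0 buffer with 300 mM NaCl. Glutathione donor and nickel acceptor beads followed; AlphaScreen signal read after 1 h.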
Six1-Eya2 inh – qHTS Assay for Inhibitors of the Six1/Eya2 Interaction; Homeobox protein SIX1 (Homo sapiens) + Protein phosphatase EYA2 (Homo sapiens), …; AlphaScreen GST-Six1/His-Eya2 binding, biochemical; stronger effect = lower value; control for the full effect not named in the record; activity change, % (no concentration beside the values); 360,000 compounds, 0.56% hits; in the data active = activity change below about -65%; inconclusive = about -30% to -65%; inactive = above about -30%; note: % is set by controls: 0 for no effect and ±100 for the full control effect
Target sequence (O00167 whole entry, looked up): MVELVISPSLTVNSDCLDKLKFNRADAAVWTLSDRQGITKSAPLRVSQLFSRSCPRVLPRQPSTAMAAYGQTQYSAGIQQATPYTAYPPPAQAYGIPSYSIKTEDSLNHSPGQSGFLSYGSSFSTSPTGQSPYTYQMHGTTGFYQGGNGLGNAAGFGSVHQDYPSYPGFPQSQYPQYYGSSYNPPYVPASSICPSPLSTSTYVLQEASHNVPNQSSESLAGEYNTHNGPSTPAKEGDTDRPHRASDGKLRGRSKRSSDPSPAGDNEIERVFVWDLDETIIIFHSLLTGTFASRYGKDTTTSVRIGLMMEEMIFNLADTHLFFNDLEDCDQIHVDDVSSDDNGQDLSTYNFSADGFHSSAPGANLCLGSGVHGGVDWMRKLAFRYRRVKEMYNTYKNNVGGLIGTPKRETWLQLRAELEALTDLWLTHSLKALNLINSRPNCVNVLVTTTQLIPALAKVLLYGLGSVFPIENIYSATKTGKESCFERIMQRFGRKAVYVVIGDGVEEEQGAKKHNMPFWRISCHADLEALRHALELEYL
Target sequence (Q15475 whole entry, looked up): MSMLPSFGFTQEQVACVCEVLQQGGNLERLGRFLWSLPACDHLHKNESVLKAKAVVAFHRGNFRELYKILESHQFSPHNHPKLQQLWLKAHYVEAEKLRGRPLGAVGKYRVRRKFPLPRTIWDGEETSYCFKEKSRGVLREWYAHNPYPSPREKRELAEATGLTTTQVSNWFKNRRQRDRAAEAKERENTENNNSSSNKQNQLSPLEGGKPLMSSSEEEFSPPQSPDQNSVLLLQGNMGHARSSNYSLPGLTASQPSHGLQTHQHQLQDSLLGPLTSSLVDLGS
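AlphaScreen with GST-Six1 and His-Eya2 (5X mix: 250 nM and 500 nM), glutathione donor and nickel acceptor beads; buffer 50 mM Tris pH 8.0, 300 mM NaCl, 1 mM TCEP; 1 h at 37 C in the dark.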
TRPV1 potentiator – HTS Assay for Compounds that Act as Potentiators of the Vanilloid Receptor 1; potentiation, % at 8.33 µM; AID 540277, 2011; TRPV1-expressing cells, Fluo-8 calcium influx, capsaicin EC20 potentiation; host cell line not named in the record; control for the full effect not named in the record; 320,000 compounds, 0.02% hits; active means potentiation above 80%; inconclusive means 30% to 80%; inactive means below 30%; note: 0% is about no effect
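Cells expressing TRPV1 were dye-loaded with Fluo-8 and read kinetically: 10 s baseline, 3 min after compound (agonist portion), then 2 min after EC20 capsaicin (allosteric enhancer portion). Calcium-bound dye fluorescence at 480/520 nm.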
D2 agonist – Beta-Arrestin HTS for Positive Allosteric Modulators of the Human D2 Dopamine Receptor: Agonists | D(2) dopamine receptor (Homo sapiens), P14416 | DiscoveRx PathHunter D2 beta-arrestin, luminescence, 90 min; 100% = 57 uM dopamine signal | activation, % (concentration not given with the values) | 360,000 compounds, 0.084% hits; in the data active = activation above about 40%; inconclusive = about 15% to 40%; inactive = below about 15%; note: the text of the record calls up to 30% inactive
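Agonist mode: compounds alone added to overnight-plated D2 PathHunter cells for 90 min at 37 C, with 57 uM final dopamine (EC100) defining full response. Beta-arrestin recruitment detected by chemiluminescent reagent, read after 1 h at ambient temperature.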
The depositor's hits bear a star; ? = inconclusive; . = not tested or not shown; & = joins results of further samples.

| compound | D2 PAM | D2 agonist | Sfp inh | PINK1 modulator | TRPV1 potentiator | CtBP-E1A blk | Six1-Eya2 inh |
| --- | --- | --- | --- | --- | --- | --- | --- |
| CS(=O)(=O)Nc1ccccc1C(=O)OCC(=O)N1CCC(c2ccccc2)=N1 | -1 | -1.8 | . | -1.8% | -5 | -4 | 2 |
| O=C(CSc1ccccc1)N1CCCC(N2CCN(c3ccc(F)cc3)CC2)C1 (stereo unspecified) | -34 | -3.2 | 10% | -0.2% | -5 | -10 | -7 |
| COc1ccccc1CNC(=O)Cn1c(=O)oc2cc(S(=O)(=O)N3CCCC3)ccc21 | -2 | -2.5 | 7% | 2.1%&-4.0% | -7 | 8 | -1 |
| CC1(c2ccccc2)NC(=O)N(CC(=O)N2CCN(S(=O)(=O)c3cccc(C(F)(F)F)c3)CC2)C1=O (stereo unspecified) | 2 | 1.9 | . | 1.2% | . | -3 | 4 |
| COc1ccccc1CC(=O)NNC(=O)c1ccc(C(C)(C)C)cc1 | 6 | -3.8 | 14% | 2.6% | -13 | 9 | 2 |
| CCOc1ccc(C(=O)COC(=O)Cc2n[nH]c(=O)c3ccccc23)cc1 | -68 | -4.6 | . | 5.8% | 10 | -7 | -5 |
| NCCCCC(N)c1cn([C@@H](CCC(=O)O)C(=O)N2CCNCC2)nn1 (stereo partly specified) | -10 | -1.4 | . | 0.1% | 21 | 2 | 3 |
| CN(CCCOc1ccccc1F)Cc1ccccc1 | -5 | -1.4 | -8% | 1.3% | -4 | 14 | -2 |
| CCN1CCN(c2nnc(-c3ccccc3)c3ccccc23)CC1 | -23 | -7.9 | 15% | 3.5% | -1 | -1 | 4 |
| CC(=O)c1ccc(NC(=O)C(C)OC(=O)C2CCN(c3ccc(C(F)(F)F)cn3)CC2)cc1 (stereo unspecified) | -10 | 1.1 | . | 5.2% | -18 | -4 | -1 |
| CCC1CCCCN1CCCNC(=O)c1cn(C)c2ccc(S(=O)(=O)N(C)C3CCCCC3)cc2c1=O (stereo unspecified) | -10 | -5.7 | 4% | -1.3%&0.5% | 8 | -8 | 0 |
| COc1cc(/C=C2\SC(=O)N(c3ccc(O)cc3)C2=O)cc(OC)c1OC | 5 | 4.6 | 2% | 3.5% | -19 | -1 | 3 |
| Cn1cccc1C(=O)NC(=O)COC(=O)CNC(=O)CNC(=O)c1ccc(Cl)cc1Cl | 1 | -1.2 | 14% | 2.1% | 0 | -10 | -10 |
| CC(C)Cn1cnc2c(SCc3ccccc3Cl)nc(N)nc21 | -13 | 1.7 | . | 4.0% | . | 0 | -1 |
| CCOC(=O)c1c(C2CC2)csc1NC(=O)COC(=O)c1ccc[n+]([O-])c1 | -28 | 1.3 | ? | -1.2% | -13 | -9 | 0 |
| O=C(NC1CCCCC1)c1ccccc1C(F)(F)F | -1 | 2.0 | 8% | -0.2% | -8 | 2 | 2 |
| C[C@H]1CN([C@@H](C)CO)C(=O)Cc2cc(NS(=O)(=O)c3cccs3)ccc2O[C@H]1CN(C)S(=O)(=O)c1cn(C)cn1 | -12 | -1.9 | . | 0.2% | . | -5 | 4 |
| Cc1cccc(NCc2nnc(-c3ccccc3)o2)c1C | -7 | -4.7 | 12% | 4.9% | 0 | -10 | -10 |
| CCOC(=O)c1sc(NC(=O)c2ccc3ncsc3c2)nc1C | 1 | -4.6 | 10% | 4.4% | 0 | -4 | 13 |
| COCCNC(=O)C(c1ccc(Cl)cc1)N(CCOC)C(=O)CCC(=O)Nc1ccccn1 (stereo unspecified) | -1 | -0.4 | 21% | -1.8% | -2 | 5 | -1 |
| Cc1nn(-c2ccccc2)c(C)c1C(=O)OC(C)C(=O)NC1CCCCC1 (stereo unspecified) | -7 | 2.9 | . | 1.6% | . | 4 | 1 |
| CCC1CCCCN1CCCNC(=O)Cn1c2ccccc2c2nc(=O)cc(C)n21 (stereo unspecified) | -14 | -1.2 | 3% | 0.3% | -13 | . | 0 |
| CCc1nn(CC(=O)NCCCN2CCc3ccccc3C2)c(=O)c2cc3sccc3n12 | -8 | -5.6 | ? | 3.0% | -1 | -22 | -20 |
| NC(=S)c1cc2cc(Cl)ccc2oc1=O | -22 | -8.9 | -14% | -0.1% | -15 | 3 | 1 |
| O=C(Nc1cccc(Cl)c1)c1nc[nH]c1C(=O)N1CCN(c2ccccc2)CC1 | -7 | -3.8 | . | 2.1% | -8 | 2 | -2 |
| O=C(CC(c1ccccc1)c1ccccc1)OCn1nnc2ccccc2c1=O | 12 | 1.0 | 1% | -0.3% | -2 | 12 | 8 |
| CN(C)S(=O)(=O)c1ccc(Cl)c(NC(=O)COC(=O)CC(NC(N)=O)c2ccc(Cl)cc2)c1 (stereo unspecified) | -35 | -5.4 | 15% | 0.6% | -11 | -7 | 4 |
| Cc1cccc(CCNC(=O)Cc2ccc(NC3=NC4CS(=O)(=O)CC4S3)cc2)c1 (stereo unspecified) | -4 | -2.9 | 4% | -0.4% | -8 | 2 | 8 |
| COC(=O)CNC(=O)c1cccc(F)c1 | -23 | -2.5 | -4% | -0.1% | 14 | 0 | 2 |
| CC1Cc2nc(SCC(=O)Nc3ccccc3F)n(C)c(=O)c2S1 (stereo unspecified) | -11 | 0.9 | 4% | 0.4% | -1 | -2 | -7 |
| O=C(N/N=C/c1cnc(N2CCCCC2)s1)c1ccc(Cl)cc1 | -14 | -2.8 | -18% | 28µM* | 3 | . | 0 |
| COCC(=O)Oc1c(S(=O)(=O)c2ccc(C)cc2)c(C)nn1-c1ccccc1 | -13 | -2.4 | 3% | 1.3% | 10 | 0 | 7 |
| O=C(COC(=O)C1=COCCO1)Nc1ccc(OC(F)F)cc1 | 4 | 0.9 | 17% | 3.0% | -1 | 1 | 0 |
| Cc1ccsc1/C=C(/C#N)C(=O)NCc1ccccc1 | -16 | -5.8 | 9% | 21% | -17 | -3 | 0 |
| Cc1cc(C)c(C)c(S(=O)(=O)N2CCN(C(=O)CCC(=O)N3CCOCC3)CC2)c1C | 0 | -1.9 | 24% | 0.3% | -8 | 6 | 5 |
| Cn1c(=O)[nH]c(=O)c2c1nc(N1CCNCC1)n2Cc1ccccc1Cl | -4 | -6.6 | 8% | 2.4% | -4 | 5 | 4 |
| COc1cccc(CN2C(=NC(=O)C3CCCO3)SC3CS(=O)(=O)CC32)c1 (stereo unspecified) | -11 | -2.7 | . | 0.1% | . | 2 | 6 |
| Cc1ccc(S(=O)(=O)Nc2ccc(Cl)cc2C(=O)c2ccc(F)cc2)cc1 | 3 | -0.8 | 18% | -1.2% | -1 | -11 | 2 |
| COc1ccc(Cl)cc1NC(=O)CN(C)Cc1ccc(OC)c(OC)c1 | -9 | -6.3 | -84% | 1.1% | -2 | -10 | 1 |
| CC(c1ccccc1)C(OC(=O)c1cccc([N+](=O)[O-])c1C(=O)O)c1ccccc1 (stereo unspecified) | 1 | -0.9 | . | 0.0% | . | 4 | 7 |

3 compounds out of the list above, sorted by their value in D2 agonist, smallest number first:
| mol | D2 PAM | D2 agonist | Sfp inh | PINK1 modulator | CtBP-E1A blk | Six1-Eya2 inh |
| --- | --- | --- | --- | --- | --- | --- |
| C[C@H]1CN([C@@H](C)CO)C(=O)Cc2cc(NS(=O)(=O)c3cccs3)ccc2O[C@H]1CN(C)S(=O)(=O)c1cn(C)cn1 | -12 | -1.9 | . | 0.2% | -5 | 4 |
| CN(CCCOc1ccccc1F)Cc1ccccc1 | -5 | -1.4 | -8% | 1.3% | 14 | -2 |
| O=C(CC(c1ccccc1)c1ccccc1)OCn1nnc2ccccc2c1=O | 12 | 1.0 | 1% | -0.3% | 12 | 8 |

(listing goes on)
| compound | D2 PAM | D2 agonist | Sfp inh | PINK1 modulator | TRPV1 potentiator | CtBP-E1A blk | Six1-Eya2 inh |
| --- | --- | --- | --- | --- | --- | --- | --- |
| CCN(CC)C(=O)CN1C(=O)C(=O)c2ccccc21 | -12 | -8.3 | 6% | 5.9% | -3 | 0 | 6 |
| CCCCN(CC)CCNC(=O)c1cc2c(=O)n(C)c3ccccc3c2n1C | -15 | -5.5 | 14% | 4.9% | ? | -2 | -5 |
| CCCOc1c(Br)cc(C(=O)NCC)cc1OC | -21 | -2.6 | 18% | 3.5% | -10 | 12 | 3 |
| O=C(Nc1cccc(-c2csc(Nc3ccccc3)n2)c1)c1ccccc1 | -1 | 3.2 | 15% | 4.8% | ? | -5 | 0 |
| COc1ccc(CNC(=O)CN(CC2CCCO2)C(=O)CNS(=O)(=O)c2ccc(C)cc2)cc1 (stereo unspecified) | -7 | -3.7 | 11% | -0.7% | -17 | 7 | 3 |
| COc1ccc(C(=O)NCC(=O)OCC(=O)Nc2sccc2C#N)cc1OC | -9 | 1.9 | 3% | 1.2% | 8 | . | -7 |
| Cc1ccccc1NC(=S)Nc1ccc2[nH]c(=O)[nH]c2c1 | -8 | -4.3 | -28% | -1.0% | 1 | -4 | 4 |
| C[C@H](c1ccccc1)N1C[C@@H](COCc2ccccc2)Oc2cc(N3CC[C@@H](N(C)C)C3)ccc2S1(=O)=O | . | . | . | 15% | . | -27 | ? |
| COc1ccc(/C=N/NC2=NS(=O)(=O)c3ccccc32)cc1 | -2 | 3.8 | -5% | 2.8% | -2 | . | -4 |
| COc1ccc(S(=O)(=O)N2CCCC(C(=O)N3CCOCC3)C2)cc1C (stereo unspecified) | -3 | -1.6 | 9% | 0.7% | -3 | -4 | 11 |
| O=[N+]([O-])c1ccc(N2CCN(CCO)CC2)cc1NCc1ccco1 | -40 | -4.2 | 17% | 0.6% | -6 | -4 | -6 |
| O=C(O)CSc1nnc(C2CC2)n1-c1ccccc1 | -4 | -2.5 | 1% | -0.9% | 5 | 1 | 0 |
| COc1ccc(C(=O)C2CCN(C(=O)c3ccc(OC)cc3)CC2)cc1 | 1 | 8.9 | 6% | 0.2% | 13 | 3 | -1 |
| C=CCO/N=C/C1C(=O)CC(C)(C)CC1=O | -4 | 1.1 | ? | -1.3% | 7 | 0 | 0 |
| Cn1c(=O)cc(SCC(=O)N2CCOCC2)c2ccc(Cl)cc21 | -2 | 0.0 | 2% | 1.6% | -10 | 2 | -10 |
